WNV protease inh: inhibitors of WNV NS2B-NS3 protease, primary screen, biochemical, fluorogenic substrate | fluorogenic substrate Ex360/Em465; hits give low values | z-score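 (tested at a level between 10 and 100 µM)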 | actives 0.18% (n = 65,000) | AID 577, 2007;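 active = z-score at -3 or under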;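 note: score is relative to mean and spread of the compound wells of a plate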
Target sequence (P06935 1371-1501 limits assumed): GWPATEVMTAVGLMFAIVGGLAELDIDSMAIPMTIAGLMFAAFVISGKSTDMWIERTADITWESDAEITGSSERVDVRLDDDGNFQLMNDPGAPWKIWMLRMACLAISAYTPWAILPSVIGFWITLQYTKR
Target sequence (P06935 1502-1679 limits assumed): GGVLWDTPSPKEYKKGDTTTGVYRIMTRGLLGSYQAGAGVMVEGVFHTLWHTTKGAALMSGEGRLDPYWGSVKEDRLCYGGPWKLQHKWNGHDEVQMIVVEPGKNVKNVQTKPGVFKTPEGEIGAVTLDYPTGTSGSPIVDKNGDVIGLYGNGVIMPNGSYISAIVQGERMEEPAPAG
Hsc70: Hsc70 inhibitors, probe displacement, primary screen, biochemical, fluorescence polarization (AID 568); 83,000 tested, under 10 active; Heat shock cognate 71 kDa protein (Homo sapiens); displacement, % at 20 µM, or IC50 in µM where a hit was titrated; Hsc70 fluorescence polarization, probe displacement; higher % means a stronger effect; strong numbers were not always called active;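 active = displacement above 50% without optical interference and an IC50 on retest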;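 note: ATPase domain with a fluorescein-tagged ATP probe; 0% = vehicle and 100% = excess ADP; read after one hour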
MT1-MMP promoter: inhibitors of MT1-MMP promoter transcription, cell-based, luciferase reporter, luminescence (AID 618) | MT1-MMP promoter luciferase reporter cells, luminescence | calls from a first round at 10 µM; hits with a dose series show EC50 in µM | actives 0.62% (n = 87,000);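 active = over half of the reporter light lost at 10 µM or EC50 under 50 µM; inactive = the rest and hits that failed the dose series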;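 note: actives suppress MT1-MMP promoter-driven transcription so potencies describe inhibitors; HT1080 fibrosarcoma cells; overnight exposure; toxic or luciferase-blocking compounds were not removed from the actives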
Numbers without * were called inactive; i = inactive; · = no result given; + = active, no number. Not all compounds are listed. The share of hits here may be higher or lower than overall.

SMILES	WNV protease inh	Hsc70	MT1-MMP promoter
CCC(=O)c1cc(-c2nc3ccccc3n2C)n(C)c1	-0.89	-1.0%	i
Cc1cc(C)n(-c2nc3c(c(=O)[nH]c(=O)n3C)n2Cc2cccc(Br)c2)n1	-0.02	-5.0%	i
COCCN1C(=O)C(CC(=O)Nc2ccc(C(C)=O)cc2)SC1=Nc1ccccc1 (stereo not given)	1.36	-8.8%	i
COc1cccc(C(=O)Nc2ncc3c(n2)CC(c2ccc(OC)cc2OC)CC3=O)c1 (stereo not given)	0.18	-18.2%	i
Cc1cc(Nc2ccccc2)n(C(=O)c2ccc(N)cc2)n1	-0.05	-3.6%	i
O=C(CN1C(=O)C2CC=C(Cl)CC2C1=O)NCc1ccccc1 (stereo not given)	-0.42	39.2%	i
CS(=O)(=O)N(CC(=O)Nc1ccccc1Sc1ccccc1)C1CCCCC1	·	3.4%	i
CN1C(=O)C2(C(C#N)=C(N)Oc3c2oc(CO)cc3=O)c2ccccc21 (stereo not given)	1.24	2.8%	i
CC(=O)CCS(=O)(=O)c1ccc(NC(C)=O)cc1	·	-2.1%	i
Cn1cnnc1SCC(=O)Nc1ccc2nc(SCc3ccccc3F)sc2c1	·	4.6%	i
Cc1nc2ccc(NC(=O)N3CCSCC3)cc2nc1C	-1.6	-0.1%	i
CC(C)(C)c1ccc(C(=O)N2CCCCCC2=O)cc1	·	3.1%	12.8µM*
O=C(O)c1ccc(Cl)c(NC(=O)C2CCCN2S(=O)(=O)c2cccc3nsnc23)c1 (stereo not given)	0.46	3.1%	i
Cc1csc(NC(=O)CSc2ncnc3c2cnn3-c2ccccc2Cl)n1	-1.15	-0.1%	i
CC(C)C(=O)N(Cc1cc2ccccc2[nH]c1=O)C(C)(C)C	0.82	-5.1%	i
O=S(=O)(Nc1ccc2nc(-c3ccco3)[nH]c2c1)c1ccccc1	0.06	-1.7%	i
Cc1cccc(C)c1NC(=O)C(c1cccs1)N(Cc1ccco1)C(=O)Cn1nnc2ccccc21 (stereo not given)	-0.18	-7.5%	i
CCSC1=C(C#N)C(c2ccccc2C)CC(=O)N1 (stereo not given)	-1.73	-14.0%	i
CCN(CC)C(=O)c1ccc(Nc2nnc(C)c3ccccc23)cc1	·	5.5%	i
O=C(Nc1nc(-c2ccccc2)cs1)C1CCCN(S(=O)(=O)c2ccccc2)C1 (stereo not given)	0.23	-6.3%	i
COC(=O)C(CC(=O)Nc1cc(C)ccc1C)Nc1ccccc1OC (stereo not given)	0.71	4.1%	i
COc1ccc(Cn2nnnc2C(c2ccccc2OC)N2CCC(C(N)=O)CC2)cc1 (stereo not given)	-0.00213	-2.0%	i
O=C(Cc1ccc(-n2cccc2)cc1)NC1CCCCC1	1.16	-8.5%	i
O=c1nc2n(c3c1oc1ccccc13)Cc1ccccc1-2	-0.00676	-1.9%	i
CSC1=N/C(=C\c2ccc(C)cc2)C(=O)S1	·	-4.0%	i

Compounds from the list above that contain an aryl thioether with sulfur outside any ring (3):
SMILES	WNV protease inh	Hsc70	MT1-MMP promoter
CS(=O)(=O)N(CC(=O)Nc1ccccc1Sc1ccccc1)C1CCCCC1	·	3.4%	i
Cn1cnnc1SCC(=O)Nc1ccc2nc(SCc3ccccc3F)sc2c1	·	4.6%	i
Cc1csc(NC(=O)CSc2ncnc3c2cnn3-c2ccccc2Cl)n1	-1.15	-0.1%	i

Back to the main list, repeating the 3 entries before the break.
SMILES	WNV protease inh	Hsc70	MT1-MMP promoter
O=C(Cc1ccc(-n2cccc2)cc1)NC1CCCCC1	1.16	-8.5%	i
O=c1nc2n(c3c1oc1ccccc13)Cc1ccccc1-2	-0.00676	-1.9%	i
CSC1=N/C(=C\c2ccc(C)cc2)C(=O)S1	·	-4.0%	i
CCC(c1nnnn1Cc1ccco1)N1CCC(C(N)=O)CC1 (stereo not given)	0.18	-2.3%	i
CC(OC(=O)CCCN1C(=O)c2ccccc2C1=O)C(=O)Nc1ncc(Cl)cc1Cl (stereo not given)	0.83	-0.6%	i
C/C(O)=C(/C#N)c1nc2ccccc2[nH]1	-1.64	4.4%	i
CC1(NC(=O)C23CC4CC(CC(C4)C2)C3)CCS(=O)(=O)C1 (stereo not given)	-1.2	9.2%	i
Cc1sc2nc(NCCO)[nH]c(=O)c2c1C	-1	0.9%	i
Cc1ccc2[nH]c(C)c(/C=N/Nc3nc4ccccc4s3)c2c1	·	1.3%	i
CCOC(=O)c1sc(NC(=O)CSc2nnnn2-c2ccc(C)cc2C)nc1C	-1.01	-4.9%	i
Cn1c(C2=C(O)CN(c3ccc4c(c3)OCCO4)C2=N)nc2ccccc21	-1.39	0.0%	i
Cc1ccc(NC(=O)NC(=O)CN2C(=O)NC3(CCc4ccccc43)C2=O)c(C)c1 (stereo not given)	1.2	1.6%	i
Cc1c(-c2ccccc2)c(P(=O)(N2CCOCC2)N2CCOCC2)c2ccccn12	0.37	3.8%	i
CC(C)NC(=O)c1cc2nc(-c3ccco3)cc(C(F)(F)F)n2n1	·	3.3%	i
c1ccc(-n2ncc(-c3nn[nH]n3)n2)cc1	·	-1.6%	i
Cc1nn(C)cc1C1Nc2ccccc2C(=O)N1O (stereo not given)	·	0.8%	i
Cc1ccc(-n2c(Cc3cccn3C)nnc2SCC(=O)N2CCN(c3ccccc3)CC2)cc1	-0.41	1.8%	i
O=C1CCC(C(=O)O)(c2ccccc2)C1 (stereo not given)	0.87	-5.8%	i
Cc1ccc(/C=C/c2ccc(=O)n(Cc3ccccc3Cl)n2)cc1	·	1.8%	i
O=C(Nc1ncc(Cc2ccccc2)s1)C1COc2ccccc2O1 (stereo not given)	·	8.4%	i
CCn1nc(NC(=O)c2ccncc2)c2cc3ccccc3nc21	0.23	-0.1%	i
O=C(NCC1CCCO1)C1CCN(c2ccc(S(=O)(=O)N3CCCC3)cc2)CC1 (stereo not given)	0.36	-4.6%	i
CN(C)c1cccc(N=C2C=C(N3CCOCC3)CC(C)(C)C2)c1	-0.43	2.1%	i
CCN(CC)c1ccc(-c2nn3c(-c4cccnc4)nnc3s2)cc1	0.44	2.6%	i
COC(=O)c1ccccc1N1C(=O)[C@@H]2C(c3ccc(Br)cc3)=NO[C@@H]2C1=O	-0.00482	-9.6%	i
CCc1ccc2nc3c(c(C(=O)O)c2c1)CCC3	-0.38	-1.2%	i
Cc1nc2ccccc2n1S(=O)(=O)c1ccc(S(=O)(=O)N2CCCCCC2)cc1	0.88	-1.7%	i
Cc1ccc(S(=O)(=O)N[C@H](C(=O)N2CCC3(O)CCCCC3C2)c2ccccc2)cc1 (stereo not given in full)	·	0.3%	i

Reformatted: results already given.
| Structure | WNV protease inh | Hsc70 | MT1-MMP promoter |
| --- | --- | --- | --- |
| O=C(Cc1ccc(-n2cccc2)cc1)NC1CCCCC1 | 1.16 | -8.5% | i |
| O=c1nc2n(c3c1oc1ccccc13)Cc1ccccc1-2 | -0.00676 | -1.9% | i |

Sorted by SMILES length (descending): some entries from above
SMILES	WNV protease inh	Hsc70	MT1-MMP promoter
COC(=O)c1ccccc1N1C(=O)[C@@H]2C(c3ccc(Br)cc3)=NO[C@@H]2C1=O	-0.00482	-9.6%	i
Cc1ccc2[nH]c(C)c(/C=N/Nc3nc4ccccc4s3)c2c1	·	1.3%	i
CCC(c1nnnn1Cc1ccco1)N1CCC(C(N)=O)CC1 (stereo not given)	0.18	-2.3%	i

The list continues.
SMILES	WNV protease inh	Hsc70	MT1-MMP promoter
COc1ccc(C(=O)CSc2cc(C)nc3nc(C)nn23)cc1OC	0.1	-0.1%	i
CCCCC[n+]1ccn(-c2nc3ccccc3nc2[N-]S(=O)(=O)c2ccc(C)cc2)c1	·	3.6%	i
COC(=O)c1ccc(CSc2ncnc3c2sc2nc(N4CCOCC4)c4c(c23)CCCC4)o1	-0.25	-16.3%	i
CCOC(=O)N1CCN(C(=O)Nc2ccc3nc(C)c(C)nc3c2)CC1	-0.63	-0.7%	i
CCC(C(=O)NC1CCCC1)N(Cc1cccs1)C(=O)Cn1nnc(-c2ccc(OC)c(OC)c2)n1 (stereo not given)	·	6.4%	i
COCCCN(C(=O)c1cccnc1SC)c1c(N)n(Cc2ccccc2)c(=O)[nH]c1=O	-1.28	4.8%	i
CCCCN(CC)CCNC(=O)C1c2cc(OC)c(OC)cc2C(=O)N2CCc3ccccc3C12 (stereo not given)	-1.52	-6.9%	i
Oc1ccc(Nc2nc(-c3ccc4ccccc4c3)cs2)cc1	·	-2.4%	+
Cc1cccc(N(CC(N)=O)C2SC(=O)N(c3ccccc3)C2=O)c1 (stereo not given)	0.92	-9.6%	i
COc1ccccc1N1CCN(C(=O)c2cc3c(s2)CCC3)CC1	·	0.7%	i
COc1ccc2c(c1)c(CC(=O)OCC(=O)O)c(C)n2C(=O)c1ccc(Cl)cc1	0.27	2.0%	i
Oc1ccccc1Nc1ncnc2c1oc1ccccc12	-0.5	-5.8%	i
COc1ccc2oc(C)c(C(=O)NN)c2c1	·	4.2%	i
COc1ccc(CNC(=O)NCc2ccc(OC)c(OC)c2)cc1OC	0.83	3.9%	i
C=CCSc1nc2sc(C)c(C)c2c(=O)n1CC=C	·	30.5%	i
O=C(Cc1ccc(-n2c(=S)[nH]c3ccccc3c2=O)cc1)N1CCC(N2CCCCC2)CC1	·	-2.8%	i
CN(c1cccc(NC(=O)COc2ccccc2)c1)S(C)(=O)=O	-0.28	-6.2%	i
CC(C)CN(C(=O)COC(=O)c1cc2c(s1)CCC2)C1CCS(=O)(=O)C1 (stereo not given)	0.45	6.6%	i
COC(=O)CN1C(=O)C2(OCCCO2)c2cc(Br)ccc21	1.36	-0.8%	i
c1ccc(Nc2ccccc2Nc2ccccn2)nc1	0.2	7.9%	i
NC(=O)c1ccsc1NC(=O)COC(=O)Cc1ccsc1	-0.05	-2.9%	i
CCOC(=O)N1CCN(c2ncnc3c2oc2nc(C(C)C)c4c(c23)CCC4)CC1	-1.52	1.3%	i
Cc1ccc(NC(=O)CSCC(=O)Nc2ncc3c(n2)CC(c2ccco2)CC3=O)cc1 (stereo not given)	-2.51	-1.9%	i
CCOc1ccc(C2C=C(c3ccc(C)cc3)Nc3nnnn32)cc1 (stereo not given)	0.13	-3.5%	i
Cc1cc(C2(c3cc(C)c(NC(=O)CN4CCOCC4)c(C)c3)CCCCC2)cc(C)c1NC(=O)CN1CCOCC1	·	-0.3%	i

Next compounds
SMILES	WNV protease inh	Hsc70	MT1-MMP promoter
Cn1c(=O)c2c(nc(N3CCCCC3)n2CCCNC2=NCCCC2)n(C)c1=O	-1.32	-2.0%	i
Cc1ccc(N2CCN(CCc3nc4cc(NS(C)(=O)=O)ccc4n3C)CC2)cc1	1.19	7.9%	i
CCCCC1(C(=O)OCC)CC(CN2CCOCC2)OC1=O (stereo not given)	-0.4	-1.3%	i
Cc1cc(Nc2nc3ccccc3nc2Cl)n(-c2ccccc2C)n1	·	0.5%	i
COC(=O)c1cc(NC(=O)CC2NCCNC2=O)cc(C(=O)OC)c1 (stereo not given)	0.19	-6.4%	i
CC(C)(C)NC(=O)C(c1ccccc1)N(Cc1cccs1)C(=O)c1csnn1 (stereo not given)	·	0.6%	i
Cc1ccc(CSc2nc3ccccc3c(=O)n2Cc2ccco2)cc1	·	-3.4%	i
c1n[nH]c(NC2=NCCC2)n1	-0.82	2.4%	i
COc1ccc(CSc2nc(C)cc(=O)[nH]2)cc1Br	0.23	-0.3%	i
NC(=O)C1CCN(C(c2ccccc2Cl)c2nnnn2CC2CCCO2)CC1 (stereo not given)	1.81	-4.8%	i
CCCOc1ccc(C2C(C(=O)c3ccc(C)o3)=C(O)C(=O)N2CCN2CCOCC2)cc1OC (stereo not given)	0.66	-5.6%	i
O=C(OCCN1CCOCC1)C(c1ccccc1)c1ccccc1	-0.6	-2.2%	i
Cc1cc(N2CCOCC2)cc(C)[n+]1[O-]	-0.43	0.8%	i
CCCCn1c2c(c(=O)n(C)c1=O)C(c1ccc(OC)cc1)N1CCCCCC1=N2 (stereo not given)	-0.14	-4.7%	i
CCN(CCCNC(=O)c1ccc(N2CCCC2=O)cc1)c1cccc(C)c1	0.21	-5.8%	i
COc1ccc(C(=O)N2CCN(c3ccc(C)c(C)c3)CC2)cc1OC	-0.11	4.1%	i
O=C1/C(=C/c2ccccc2)CCCc2ccccc21	·	-0.8%	i
CCC(C)NC(=O)C1=C(C)C(=O)OC12CCC(C)CC2 (stereo not given)	0.46	3.0%	i
O=C(CN1CCN(C(=O)c2c(F)cccc2F)CC1)Nc1ccccc1F	1.48	4.5%	i
Cc1ccc(-n2ncc3c(NCCCn4ccnc4)ncnc32)c(C)c1	-1.13	2.1%	i
O=C(CN1C(=O)c2ccccc2S1(=O)=O)NCCSc1ccccc1	-0.58	-7.8%	i
CCCCCCCCN=C1NC(=O)CS1	·	0.6%	i
COc1ccc(CNc2nc3nc(C)c(Cl)c(C)n3n2)cc1OC	0.25	-6.1%	i
CC12CCC(C(=O)n3c1nc1ccccc13)C2(C)C (stereo not given)	0.62	1.3%	i
CCCOC(=O)c1cc(-c2ccc(/C=C3/C(=O)N(C)C(=O)C(C#N)=C3C)o2)ccc1Cl	·	17.1%	i
Cc1nc(SCC(=O)NCc2ccco2)[nH]c(=O)c1C	·	-4.1%	i
COc1ccc(-n2c(Cc3cccn3C)nnc2SCC(=O)Nc2ccc(C(C)=O)cc2)cc1	-0.21	1.3%	i
O=c1c2[nH]c3ccccc3c2ncn1C1CCCCC1	0.44	1.5%	i
O=C(O)c1cn(-c2ccccc2)nc1C(=O)O	·	3.4%	i
Cc1cccc(C)c1NC(=O)N1CCC(N2CCCCC2)CC1	-0.96	-5.7%	i

Assay outcomes (PubChem BioAssay)
